2A firefly – FMDV 2A StopGo reporter, firefly signal. HEK cells with a luciferase reporter of 2A StopGo recoding. AID 1745856. actives 0.23% (n = 120,000). Potency, µM (top dose mostly 57.5 µM), for inactives: at the highest dose signal change, negative = less light; active = well fitted falling curve with a large enough effect; inconclusive = small, poorly fitted or top-dose-only effect; inactive = no such curve, though single readings can be large or run the other way; note: nearly all actives have a fitted effect of over 60% in size; overnight with compound
2A Renilla – FMDV 2A StopGo reporter, Renilla signal. HEK cells with a luciferase reporter of 2A StopGo recoding. Potency, µM (titrated, usually from 57.5 µM), for the others: at the top dose signal change, negative = less light. actives 0.32% (n = 120,000). AID 1745857; active means well fitted falling curve with a large enough effect; inconclusive means small, poorly fitted or top-dose-only effect; inactive means no such curve, though single readings can be large or run the other way; note: nearly all actives have a fitted effect of over 55% in size; overnight with compound
The depositor's hits bear a star; ? = inconclusive; & = joins results of further samples; [ ] = remark or other dose. % is set by controls: 0 for no effect and ±100 for the full control effect; potency is the fitted concentration of half-maximal effect.

SMILES	2A firefly	2A Renilla
CCc1ccccc1Nc1cc(C(=O)NCCCN(C)C2CCCCC2)c2ccccc2n1	20%	18%
CC(C)OCCCNC(=O)c1ccc(-n2c(-c3ccccc3)cc3c2CCCC3)cc1	1%	-15%
O=C(NCCNS(=O)(=O)c1cccc2nonc12)c1ccc2[nH]ccc2c1	15%	22%
COc1cccc(-c2noc(-c3cc4ccccc4oc3=O)n2)c1OC	0%&-7%	8%&-8%
CCOc1ccc(C2C(=O)N(C3CCCCC3)CC(=O)N2CCc2ccccc2)cc1OC (stereo not given)	-23%	-8%
Cc1nc(N2CCCC2)c2c(C(=O)Nc3cccc(Cl)c3)c(C)oc2n1	-23%	-15%
CCOC(=O)c1cc(S(=O)(=O)Nc2ccc(Br)c(C)c2)[nH]n1	4%	70%[activator]
O=C(NNC(=O)c1ccc2c(c1)CCCC2)c1cccnc1	24%	8%
O=C(Nc1ccc2oc(-c3cccc4c(Br)cccc34)nc2c1)c1cccnc1	?	-1%
Cc1ccc(CN2C(=O)SC(Nc3ccccc3)C2=O)cc1 (stereo not given)	-16%	-13%
N#C/C(=C/c1ccc(/C=C(\C#N)C(N)=O)cc1)C(N)=O	4%	3%
CCC(C(=O)Nc1ccc(C)c(OCc2cc(=O)n3ccc(C)cc3n2)c1)c1ccccc1 (stereo not given)	33%[activator]	5%
O=C(c1ccc2c(c1)CCCC2)N1CCN(c2nc3c(F)cccc3s2)CC1	-17%	-10%
Cc1ccc(Cn2nccc2NC(=O)C2CCN(S(=O)(=O)c3ccc(C)c(C)c3)CC2)cc1	22%	151%[activator]
COc1ccc(S(=O)(=O)NCc2cccn2Cc2cccc(C)c2)cc1OC	-5%	250%[activator]
CC(=O)c1ccc(N2C(=O)N(CC(=O)c3ccc(F)cc3)c3ccccc3S2(=O)=O)cc1	1%	0%
C=CCOc1ccc(Br)cc1/C=C(/C#N)C(=O)Nc1ccccc1C(F)(F)F	11%	38%[activator]
Cn1nc(C(=O)Nc2nc(-c3cccc4ccccc34)cs2)c2ccccc2c1=O	18%	-4%
CC(OC(=O)C12CC3CC(CC(C3)C1)C2)C(N)=O (stereo not given)	5%	-4%
Cc1ccc(C(=O)NCC(=O)OCc2cc(=O)n3nc(C4CCCCC4)sc3n2)cc1	-13%	-14%
COc1cc(SC)ccc1C(=O)Oc1ccc(C(C)(C)C)cc1	0%	3%
NC(=O)c1ccccc1NC(=O)C1CCCN(c2ncnc3onc(-c4ccc(F)cc4)c23)C1 (stereo not given)	-3%	6%
C=C(C)Cn1c(N(C)C)nc2c1c(=O)n(C)c(=O)n2C	-1%	-8%
Cc1ccc(C(CNC(=O)c2cc(=O)c3ccc(C)c(C)c3o2)N2CCCC2)o1 (stereo not given)	-2%	-9%
C/C(Cl)=C\Cc1c(C)nc2c(C)cccc2c1Cl	-6%	9%
Continued:
SMILES	2A firefly	2A Renilla
COc1ccc(OC)c(NC(=O)CCn2ccnc2)c1	4%	-2%
Cc1ccc(Sc2ccc(Sc3ccc(C)cc3)c(C#N)c2)cc1	-8%	-5%
Cc1cccc(NC(=O)CSC2=Nc3ccccc3C3=NC(CCC(=O)NCc4ccc(F)cc4)C(=O)N23)c1 (stereo not given)	-18%	2%
CCOc1ccc(-c2nn(CC(=O)NC3CCCCC3)c3c2cnc2ccc(C)cc23)cc1	-14%	-7%
Cc1c(CNC2CCCCC2)c(C(=O)O)c(C)n1Cc1ccc(F)cc1	-26%	-15%
COc1ccc(C2(C)N(O)C(C)C(c3ccccc3)=[N+]2[O-])cc1 (stereo not given)	-5%	1%
COc1ccc(Cl)cc1NC(=O)CCS(=O)(=O)c1cccc2nonc12	-5%	4%
CCOc1ccc(NC(=O)/C=C/Sc2ccccc2)cc1	0%	5%
Cc1ccc(-c2nc(CS(=O)CC(=O)NCc3ccc(F)cc3)c(C)o2)cc1 (stereo not given)	-4%	15%
CC(C)Cn1c(-c2ccc(F)cc2)cnc1SC1CCCCNC1=O (stereo not given)	10%	-5%
CCN(CC)c1ccc(C(=O)NCc2ccc3c(c2)CCN3C(=O)c2ccccc2)cc1	-23%	-13%
CCCn1c(=N)c(C(=O)NCc2ccccc2)cc2c(=O)n3cccc(C)c3nc21	-9%	-3%
COc1ccc(CCNc2nc(-c3ccc(OC)c(OC)c3)cs2)cc1OC	?	?
Cc1ccc(Nc2nnc(Cc3ccccc3)c(=O)[nH]2)cc1Cl	1%	-12%
COc1ccc(N(C)C(=O)c2cc3c(s2)-c2c(C)cccc2OC3)c(OC)c1	1%	-4%
CCOc1ccc(CNC(=O)c2cc3ccccn3n2)cc1	170%[activator]	-12%
O=C(Nc1nc2cc3c(cc2s1)OCCCO3)c1cc(Cl)ccc1F	196%[activator]	11%
O=C(Nc1ccc2nc(SCC(=O)N3CCOCC3)sc2c1)c1cccc(Br)c1	?	?
COc1ccccc1OCC(=O)Nc1nc(-c2ccc(Br)cc2)ns1	-9%	-5%
CC(NC(=O)Cn1c(=O)c2c(ncn2C)n(C)c1=O)c1ccc(Cl)c(Cl)c1 (stereo not given)	10%	0%
CN(C(=O)c1nn(C)c2c1CS(=O)(=O)c1ccccc1-2)c1cccc(Cl)c1	4%	-5%
CSc1nc(N)c2c(n1)NC1=C(C(=O)CC(C)(C)C1)C2c1ccncc1 (stereo not given)	8%	10%
O=C(O)c1cc(-c2ccccn2)nc2c(Cl)cccc12	13%	2%
Cc1cnc(NC(=O)CSc2cc(F)ccc2F)s1	0%	4%
Cc1c(Cl)cccc1N(CC(=O)Nc1ccc2c(c1)OCO2)S(C)(=O)=O	-5%	69%[activator]

In another format: 2 of the compounds above.
Structure | 2A firefly | 2A Renilla
C=C(C)Cn1c(N(C)C)nc2c1c(=O)n(C)c(=O)n2C | -1% | -8%
C/C(Cl)=C\Cc1c(C)nc2c(C)cccc2c1Cl | -6% | 9%

Remaining list, next part.
SMILES	2A firefly	2A Renilla
COc1ccc(OC)c(S(=O)(=O)Nc2cc3c(C(C)=O)c(C)oc3c3ccccc23)c1	-12%	125%[activator]
CN(Cc1ccccc1)C(C(=O)NC1CCCCC1)c1ccc(Cl)cc1 (stereo not given)	-7%	-3%
Cc1ccc(NC(=O)CCc2nc(-c3ccccc3F)no2)c(C)c1	-6%	3%
Cc1cc(NC(=O)COC(=O)c2csc(NCc3ccccc3)n2)ccc1N1CCCC1	-3%	-15%
CCc1cccc(C)c1NC(=O)c1cc(S(=O)(=O)N2CCN(c3ccccc3)CC2)ccc1F	-13%	19%
O=C1/C(=C/c2cccs2)CSc2ccccc21	221%[activator]	12%
CC(NC(=O)c1ccc2c(c1)CCN2S(=O)(=O)c1ccc(Cl)cc1)c1ccccc1 (stereo not given)	0%	11%
O=c1[nH]cccc1NS(=O)(=O)c1ccccc1F	-14%	-15%
O=C(Nc1ccc2nc(N3CCCC3)sc2c1)c1ccc(F)cc1	125%[activator]	3%
CC(C)C(C)(C)C(C)(C)C(C)(C)S	1%[22.9 µM]	-7%[114 µM]
Cc1cccc(NC(=O)c2ccc(F)c(S(=O)(=O)N3CCC4(CC3)OCCO4)c2)c1	0%	35%[activator]
Cc1cc(C)cc(NC(=O)CSc2nc3nccnc3c(=O)n2CCc2c[nH]c3ccccc23)c1	22%	4%
O=C(CSc1oc(-c2ccco2)nc1S(=O)(=O)c1ccc(Cl)cc1)c1ccccc1	22%	157%[activator]
Cc1cccc(N(CC(=O)NCCSc2ccc(Cl)cc2)S(=O)(=O)c2ccccc2)c1C	-19%	39%[activator]
O=C(c1cccc(C(F)(F)F)c1)N1CCN(C/C=C/c2ccccc2)CC1	8%	-2%
COc1ccccc1NC(CC(=O)c1ccccc1)C(=O)OCC(=O)c1ccc(C)cc1 (stereo not given)	0%	4%
CCOC(=O)c1cccc(NS(=O)(=O)c2ccc(-c3coc(C)n3)cc2)c1	-6%	140%[activator]
Fc1ccc(-n2nnnc2SCc2ccc(Cl)cc2)cc1Cl	12%	9%
COc1ccc(-c2nc3cc(NC(=O)c4ccc(OC)c(OC)c4)ccc3o2)cc1	41%[activator]	-3%
FC(F)(F)c1cccc(Oc2ncnc3scc(-c4ccccc4)c23)c1	0%	5%
O=C(Nc1ccccc1C(F)(F)F)c1ccccc1Cl	24%	19%
COc1cc(C)ccc1OCCOc1ccc(Br)cc1	0%	16%
CCC1CCCCN1C(=O)Cn1c(=O)n(Cc2ccc3c(c2)OCO3)c(=O)c2sccc21 (stereo not given)	0%	18%
COc1ccc(NC(=O)CN2C(=O)COc3ccc(S(=O)(=O)Nc4ccccc4)cc32)cc1OC	-11%	65%[activator]
CCCC(=O)N1CCC(C(=O)Nc2cc(C)ccn2)CC1	50%[activator]	3%

An excerpt of these results, as a markdown table:
| Molecule | 2A firefly | 2A Renilla |
| --- | --- | --- |
| Cc1cnc(NC(=O)CSc2cc(F)ccc2F)s1 | 0% | 4% |
| O=C(c1cccc(C(F)(F)F)c1)N1CCN(C/C=C/c2ccccc2)CC1 | 8% | -2% |
| FC(F)(F)c1cccc(Oc2ncnc3scc(-c4ccccc4)c23)c1 | 0% | 5% |
| NC(=O)c1ccccc1NC(=O)C1CCCN(c2ncnc3onc(-c4ccc(F)cc4)c23)C1 (stereo not given) | -3% | 6% |
| CN(Cc1ccccc1)C(C(=O)NC1CCCCC1)c1ccc(Cl)cc1 (stereo not given) | -7% | -3% |

Later entries.
SMILES	2A firefly	2A Renilla
COc1ccc(-c2noc(CN(C(=O)C(C)Oc3ccc(C)cc3)C(C)C)n2)cc1 (stereo not given)	-14%	-4%
COc1ccccc1CCN1CNc2c(c(=O)[nH]c(=O)n2-c2ccc(Cl)cc2)C1	8%	2%
O=S1(=O)CCN2C(c3cc(Cl)ccc3Cl)=CSC2=N1	0%	3%
CCCCNC(=O)c1ccc2c(c1)ncn2-c1cc(OC)ccc1OC	-7%	47%[activator]
Cc1cccc(NC(=O)CSc2nc3nccnc3c(=O)n2CCc2ccccc2)c1	4%	-2%
CCc1ccc2oc(=O)cc(CN3CCOCC3)c2c1	12%	1%
Cc1ccc(CNc2nc3ccc(Cl)cc3n3cnnc23)cc1	0%	2%
CCOc1cc(C2NC(=O)NC(C)=C2C(=O)OCC(F)(F)F)ccc1O (stereo not given)	-1%	-2%
CSc1cccc(NC(=O)Cc2cccc(F)c2)c1	74%[activator]	212%[activator]
CC(C)c1ccc(/C=C(\C#N)C(=O)NC2CCCCC2)cc1	26%	79%[activator]
Cc1ccc(OCC(=O)N(Cc2ccc(Cl)cc2)Cc2ccco2)cc1C	40%[activator]	12%
Cn1c(=O)c2c(nc(SCC(N)=O)n2Cc2ccccc2)n(C)c1=O	12%	1%
CCc1c(C)sc2c1CCN(Cc1cccc(F)c1)C2c1ccccc1 (stereo not given)	?	?
Cc1ccc(Br)cc1S(=O)(=O)Nc1ccc2cn[nH]c2c1	13%	340%[activator]
CCCCCCCCCCCCOC(=O)C[N+](C)(C)C	-8%	-6%
Cc1[nH]c2ccc(F)cc2c1CCNC(=O)c1cc2cc(Cl)ccc2oc1=O	9%	-9%
O=C(NC(Nc1ccc(Br)cc1)C(=O)c1ccccc1)c1ccccc1 (stereo not given)	54%[activator]	91%[activator]
COc1ccc(CNC(=O)Cn2c(=O)nc(-c3ccccc3F)c3cc(Cl)ccc32)cc1	7%	5%
CCOC(=O)C1CCCN(c2c(C(=O)c3ccc(C)cc3)cnc3ccc(OCC)cc23)C1 (stereo not given)	-17%	10%
COc1ccc(C2CC(=O)Nc3c2c(=O)[nH]c2nc4ccccc4n32)cc1OC (stereo not given)	-14%&0%	-12%&2%
CCn1nc(C(=O)NC(C)(C)C)c2ccccc2c1=O	12%	10%
COC(=O)[C@H](C(C)C)N(CCc1cn(Cc2ccccc2)nn1)S(=O)(=O)c1ccccc1Br	-12%	0%
CCc1cccc(NS(=O)(=O)c2ccc3c(c2)N(CC(=O)OC)C(=O)CS3)c1	?	160%[activator]
CCc1nc(Nc2ccccn2)sc1C	0%	10%
Cc1cc(F)ccc1S(=O)(=O)Nc1cc2c(C(=O)O)c(C)oc2c2ccccc12	-14%	-19%

Complete entries, quoted from the list. Screens in order: 2A firefly	2A Renilla
Shown for O=C(NC(Nc1ccc(Br)cc1)C(=O)c1ccccc1)c1ccccc1 (stereo not given) = 54%[activator]	91%[activator]
Shown for Cc1ccc(CNc2nc3ccc(Cl)cc3n3cnnc23)cc1 = 0%	2%

New compounds follow:
SMILES	2A firefly	2A Renilla
Cc1cccc(N2CCN(C(=O)c3cnn(-c4ccc(F)cc4F)c3C3CCN(C(=O)OC(C)(C)C)CC3)CC2)c1C	0%	26%
CC1CCc2sc(N)c(C#N)c2C1 (stereo not given)	34%[activator]	6%
COc1cccc(C2=CC(c3cc(Br)ccc3F)n3nnnc3N2)c1 (stereo not given)	47%[activator]	35%[activator]
COc1ccccc1CNS(=O)(=O)c1cnc(N)nc1	-5%	-4%
O=C(CCC(=O)c1ccc2c(c1)CCCC2)OCc1ccccc1[N+](=O)[O-]	16%	14%
N#Cc1c(/N=C/c2c(Cl)cccc2Cl)sc2c1CCCC2	12%	14%
COc1cc(CN(C(=O)c2ccc3c(c2)NC(=O)C(C)S3)C2CC2)ccc1OC(F)F (stereo not given)	?	?
C=CCn1c(NCc2ccc(C)cc2)nc2c1c(=O)[nH]c(=O)n2C	-1%	-1%
Cc1ccc(-n2nc(N3CCCN(S(=O)(=O)c4cccc5nsnc45)CC3)ccc2=O)cc1	-7%	15%
COc1ccc(-c2cc(C(=O)N3CCN(CC(=O)N4CCOCC4)CC3)c3ccccc3n2)cc1	191%[activator]	54%[activator]
CC(OC(=O)c1ccc(-n2cnnn2)cc1)C(=O)N1CCCc2ccccc21 (stereo not given)	-6%	-7%

These rows are one share of the data; the hit share may differ from the screen's.
